Screening results from PubChem BioAssay.
Hsc70 ATP site = Hsc70 inhibitors, probe displacement, primary screen, biochemical, fluorescence polarization (AID 568). Hsc70 fluorescence polarization, probe displacement; higher % means a stronger effect; strong numbers were not always called active. one-dose displacement, % at 20 µM; IC50 in µM for titrated hits. 83,000 tested, under 10 active;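 active = displacement above 50% without optical interference and an IC50 on retest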;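 note: ATPase domain with a fluorescein-tagged ATP probe; 0% = vehicle and 100% = excess ADP; read after one hour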
WNV protease inh = inhibitors of WNV NS2B-NS3 protease, primary screen, biochemical, fluorogenic substrate; Genome polyprotein (West Nile virus), P06935; fluorogenic substrate Ex360/Em465; hits give low values; z-score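 (tested at a level between 10 and 100 µM)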; actives 0.18% (n = 65,000); AID 577, 2007;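 active = z-score at -3 or under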;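 note: score is relative to mean and spread of the compound wells of a plate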
Target sequence (P06935 1371-1501 limits assumed): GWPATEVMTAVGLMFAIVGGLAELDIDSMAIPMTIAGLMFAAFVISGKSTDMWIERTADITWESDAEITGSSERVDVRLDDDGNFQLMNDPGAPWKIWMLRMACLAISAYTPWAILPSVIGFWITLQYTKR
Target sequence (P06935 1502-1679 limits assumed): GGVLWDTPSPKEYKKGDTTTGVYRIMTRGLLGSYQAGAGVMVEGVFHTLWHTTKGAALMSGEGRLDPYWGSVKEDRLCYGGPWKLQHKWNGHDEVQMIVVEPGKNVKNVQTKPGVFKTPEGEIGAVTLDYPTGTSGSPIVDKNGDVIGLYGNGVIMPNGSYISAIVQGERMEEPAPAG
MT1-MMP promoter = inhibitors of MT1-MMP promoter transcription, cell-based, luciferase reporter, luminescence (AID 618); MT1-MMP promoter luciferase reporter cells, luminescence; calls from a first round at 10 µM; hits with a dose series show EC50 in µM; actives 0.62% (n = 87,000);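 active = over half of the reporter light lost at 10 µM or EC50 under 50 µM; inactive = the rest and hits that failed the dose series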;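 note: actives suppress MT1-MMP promoter-driven transcription so potencies describe inhibitors; HT1080 fibrosarcoma cells; overnight exposure; toxic or luciferase-blocking compounds were not removed from the actives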
The depositor's hits bear a star; i = inactive; . = not tested or not shown. This is a random part of the collection. Share with any hit: about 0.8%.

SMILES	Hsc70 ATP site	WNV protease inh	MT1-MMP promoter
COCCCNC(=O)Cn1nnc(-c2ccc(NC(=O)c3ccc(F)cc3)cc2)n1	-6.6%	-0.24	i
Cc1nc2cc(S(=O)(=O)C(F)(F)F)ccc2s1	0.1%	1.2	i
CCc1nc(N[C@H](C(=O)O)C(C)CC)c2oc3ccccc3c2n1 (stereo not given in full)	0.3%	.	i
O=C(NCc1cccnc1)c1noc2c1CCCC2	5.8%	-1	i
CCCCNc1c2c(nc3c(-c4ccccc4)c(C)nn13)CCC2	0.7%	.	i
O=C(NC(Cc1ccccc1)C(=O)O)c1ccc(S(=O)(=O)N2CCOCC2)cc1 (stereo not given)	-8.1%	-1.3	i
Cc1nc(NC(=O)c2ccc(Br)s2)sc1C(=O)N(C)C	-5.1%	-0.24	i
COc1ccc(OC)c(NC(=O)CSc2nnc(N)s2)c1	-5.2%	-0.07	i
CCCc1nc(SCC(N)=O)[nH]c(=O)c1CC	-1.8%	-0.68	i
COC(=O)c1c(N)sc(C(=O)N2CCOCC2)c1C	-1.7%	-0.3	i
Cc1ccc(-c2nc(C)sc2CC(=O)NCc2ccco2)cc1	0.2%	0.43	i
Cc1cc(C)nc(SCc2nnc(SCC(=O)Nc3c(C)cccc3C)o2)n1	-10%	.	i
Cc1cc(C)n2nc(C(=O)NCc3ccccc3)nc2n1	-0.8%	.	i
CCOC(=O)C1=C(NC#N)OC(C)=C(C)C1c1ccc(O)cc1 (stereo not given)	-0.9%	-0.51	i
CCC(C)N(C(=O)C(F)(F)F)C(C(=O)NC1CCCCC1)c1ccncc1 (stereo not given)	1.1%	.	i
CCn1ncc(C2=NOC(C(=O)Nc3ccc4c(c3)OCO4)C2)c1C (stereo not given)	-1.7%	-0.58	i
CCOC(=O)N1CCC2(CC1)C(C#N)=C(N)Oc1c2sc2nc(C)cc(C)c12	-4.0%	-1.3	i
c1ccc(C2Nc3ccccc3-c3nc4ccccc4n32)nc1 (stereo not given)	-0.2%	-0.17	i
CCC(C)NC(=O)c1cc(CC(C)C)on1 (stereo not given)	2.0%	0.49	i
CCOc1ccc(CNc2ccc(N3CCOCC3)c(C(=O)O)c2)cc1	-5.4%	.	i

Shown field by field: entries from further up.
CCOC(=O)C1=C(NC#N)OC(C)=C(C)C1c1ccc(O)cc1 (stereo not given)
  Hsc70 ATP site: -0.9%
  WNV protease inh: -0.51
  MT1-MMP promoter: i

CCC(C)N(C(=O)C(F)(F)F)C(C(=O)NC1CCCCC1)c1ccncc1 (stereo not given)
  Hsc70 ATP site: 1.1%
  WNV protease inh: .
  MT1-MMP promoter: i

CCn1ncc(C2=NOC(C(=O)Nc3ccc4c(c3)OCO4)C2)c1C (stereo not given)
  Hsc70 ATP site: -1.7%
  WNV protease inh: -0.58
  MT1-MMP promoter: i

CCOC(=O)N1CCC2(CC1)C(C#N)=C(N)Oc1c2sc2nc(C)cc(C)c12
  Hsc70 ATP site: -4.0%
  WNV protease inh: -1.3
  MT1-MMP promoter: i

Further structures:
SMILES	Hsc70 ATP site	WNV protease inh	MT1-MMP promoter
Cn1cccc1/C=C1\CCC/C(=C\c2cccn2C)C1=O	-141%	.	i
CCC(=O)O[C@@H]1CC(=O)O[C@H](C)CC=CC=C[C@@H](O)[C@H](C)C[C@H](CC=O)[C@H](O[C@H]2O[C@H](C)[C@@H](O[C@H]3C[C@@](C)(O)[C@@H](OC(=O)CC)[C@H](C)O3)[C@H](N(C)C)[C@H]2O)[C@H]1OC	0.1%	-0.79	i
Cc1oc2nc(SCC(=O)NC3CCCCC3)nc(N)c2c1C	0.5%	2	i
Cc1ccc(-c2nn(C)c(=O)c3ccccc23)cc1CNC(=O)c1ccco1	-0.7%	1	i
Cc1ccc(NC(=O)c2ccc(OC(=O)CCN3C(=O)c4ccccc4C3=O)cc2)cc1	1.6%	.	i
O=C1CCSc2cccc3cccc(c23)N1	1.3%	0.11	i
Cc1ccccc1OCC(=O)O/N=C(\N)Cc1ccc(Cl)cc1	3.2%	.	i
CC(C)(C)OC(=O)NCC(=O)NCC(=O)OCc1ccccc1	-1.2%	-0.65	i
CC1CCN(c2ncnc3ccccc23)CC1	12%	.	i
CC(=O)NN1C(=O)/C(=C/c2ccc(Br)o2)SC1=S	-62%	.	i
CN(CCc1ccccn1)c1ncnc2[nH]ncc12	-0.1%	-0.32	i
Cc1ccc(-c2nc(N)n(C(=O)Cc3ccccc3)n2)cc1	-7.2%	0.02	i
O=C(O)CN1C(=O)CCS(=O)c2ccccc21 (stereo not given)	2.9%	0.27	i
CCN(CC)CCNC(=O)C12CC3CC(C)(CC(C)(C3)C1)C2	3.5%	.	i
CCCS(=O)(=O)NCc1cn2c(C)csc2n1	1.6%	0.32	i
CCc1nnc(NC(=O)CSc2nnc(COc3ccccc3)n2Cc2ccccc2)s1	0.9%	1.7	i
Cn1nnc(NC(=O)c2ccco2)n1	-2.4%	-0.02	i
O=C(CSc1nc2c(c(=O)n1-c1ccc(Cl)cc1)SCC2)Nc1ccc2c(c1)OCCO2	2.9%	-2.4	i
Cc1ccccc1CSCC(=O)NC(=O)NC(C)(C)C	5.9%	-0.18	i
Cc1cc(NC(=O)CSc2nc3ccccc3[nH]2)no1	-4.8%	-1.7	i
CCC1(CC)C(=O)N(C)C(=O)NC1=Nc1ccc(OC)cc1	-0.2%	.	i
O=C(O)c1cccc(S(=O)(=O)NCc2cccs2)c1	3.2%	0.76	i
CCOc1ccc(OCc2ccc(C(=O)Nc3ccc(Cl)cn3)o2)cc1	-3.3%	-0.12	i
Oc1ccc2nc(Cc3ccccc3)[nH]c2c1	-1.0%	1.4	i
CCOC(=O)C1C(=O)NCC2CCCC21 (stereo not given)	0.8%	-0.25	i
CC1(C)CC(=O)C(C(c2ccco2)C2C(=O)CC(C)(C)CC2=O)C(=O)C1	-6.1%	1.4	i
N=c1c2c(ncn1CCN1CCOCC1)Oc1ccc3ccccc3c1C2c1ccccc1 (stereo not given)	-5.2%	.	i
O=C(CN(c1ccccc1)S(=O)(=O)c1ccccc1)N1CCN(Cc2ccc3c(c2)OCO3)CC1	0.2%	0.99	i
O=C(NCC1COc2ccccc2O1)C1CCCN(S(=O)(=O)c2cnc[nH]2)C1 (stereo not given)	4.9%	-0.48	i
COC(=O)c1ccc(NC(=O)CSc2nnc(CNc3ccc(OC)cc3)n2C)cc1	-8.0%	0.67	i
CS(=O)(=O)N(Cc1ccccc1)c1ccccc1C(=O)Nc1ccccc1C(=O)NCc1ccco1	-0.2%	.	i
CCOC(=O)C(Cc1cc(C(C)=O)ccc1OC(C)C)C(=O)OCC	-1.4%	-0.67	i
COC(=O)CSc1nnc(-c2ccccc2OC)n1-c1ccc(C)cc1	0.4%	.	i
COC(=O)C1C(=O)N2CCCSC2=C(C#N)C1c1cccs1 (stereo not given)	1.8%	-0.16	i
CCSC1=NC2(CCCCC2)Nc2sc3c(c21)CCCC3	5.5%	.	i
O=c1[nH]n(CC2COC3(CCCCC3)O2)c(=O)c2ccccc12 (stereo not given)	-2.3%	-0.81	i
COc1ccc(C2C3=C(N=C4SCC(=O)N42)c2ccccc2CC3)cc1OC (stereo not given)	1.4%	0.48	i
O=C(O)C1CCCN(S(=O)(=O)c2ccc(Cl)s2)C1 (stereo not given)	3.1%	-0.4	i
COc1ccc(OC)c(C2C(C(=O)Nc3ccccc3OC)=C(C)Nc3nc(CCCO)nn32)c1 (stereo not given)	-0.9%	2.1	i
CC(C)(C)NC[C@H](O)COc1nsnc1N1CCOCC1	-0.9%	0.19	i
CC1Cc2ccccc2N1C(=O)CCS(=O)(=O)c1cccs1 (stereo not given)	0.3%	-0.87	i
O=C1NCC(COCC2CC=CCC2)O1 (stereo not given)	-3.1%	0.92	i
O=C(CSc1ncnc2nc[nH]c12)c1ccc2ccccc2c1	-2.6%	.	i
CCC1Oc2ccccc2N(CC(=O)Nc2ccc(OC)cc2OC)C1=O (stereo not given)	2.9%	-1.2	i
CS(=O)(=O)N(Cc1ccc(Cl)cc1)c1ccc(C(=O)Nc2cccnc2)cc1	3.6%	.	i
C#CCSc1nnc(CSc2nc3ccccc3s2)n1-c1ccccc1	-7.7%	.	i
COc1ccc(Cl)cc1C(=O)NCC(C)C	-0.4%	1.9	i
N#CCCN(C(=O)COC(=O)c1ccc2c(c1)NC(=O)CS2)c1ccc2c(c1)OCCO2	5.1%	-0.55	i
CCCCNC(=O)CS(=O)Cc1nc(-c2cccc(C)c2)oc1C (stereo not given)	6.9%	-0.97	i
Nc1cc(=O)[nH]c(SCC(=O)NCC2CCCO2)n1 (stereo not given)	-1.4%	1.3	i
(continued)
SMILES	Hsc70 ATP site	WNV protease inh	MT1-MMP promoter
C=CCn1c(SCCC#N)nnc1-c1ccncc1	1.3%	0.82	i
c1ccc(N2CCN(c3cnccn3)CC2)nc1	-0.8%	1.1	i
COc1ccc(C2SCC(=O)N2c2c(C)n(C)n(-c3ccccc3)c2=O)c(OC)c1 (stereo not given)	2.8%	-0.26	i
CC(C)NC(=O)c1ccccc1-c1ccccc1	-0.2%	.	i
CC(C)CNC(=O)c1cccc(C(=O)NCC(C)C)c1	-6.6%	-0.01	i
Cc1ccc(-n2nnc3c(SCC(=O)N4CCN(c5ccccc5)CC4)ncnc32)cc1	6.2%	-0.24	i
Cc1cccc(/C(N)=N/OC(=O)c2ccco2)c1	1.3%	.	i
COc1ccccc1Oc1c(C)oc2c(CN3CCN(CCO)CC3)c(O)ccc2c1=O	1.6%	1.8	i
O=C(Nn1cnnc1)c1ccncc1	0.3%	0.1	i
O=C(Nc1ccc2c(c1)CCC2)c1cnccn1	-11%	0.31	i
O=C(N1CCOCC1)N1CCC(NC(=O)C23CC4CC(CC(C4)C2)C3)CC1	2.1%	-0.85	i
CCC(C)(C)n1nnnc1C(c1ccccc1F)N1CCC(C(N)=O)CC1 (stereo not given)	-1.3%	-0.89	i
COC(=O)Nc1ccc(OC)c(OC)c1	1.9%	1.6	i
Cc1ccccc1-n1c(-c2ccncc2)n[nH]c1=S	-5.2%	1.4	i
COC(=O)c1cc(=O)n(Cc2ccco2)c(=Nc2ccc(F)c(Cl)c2)s1	0.0%	-1.4	i
Cc1cc(C)n(C/C=C/Cn2nc(C)cc2C)n1	-0.5%	-0.39	i
O=C(NCCCc1ccccc1)c1ccc(Br)o1	-0.2%	-0.68	i
O=C(CSc1nnc(-c2ccco2)n1-c1ccccc1)N1CCOCC1	-1.3%	1.4	i
O=C(NCc1ccc2c(c1)OCO2)c1ccc(=O)[nH]c1	1.7%	.	i
O=C(O)Cn1nc(-c2ccccc2)c2ccccc2c1=O	-11%	2.2	i
CCOC(=O)c1nc(N)c(C(=O)OCC)[nH]1	-3.2%	-0.36	i
CCOC(=O)N1CCN(CC(=O)Nc2cc3c(cc2C(C)=O)OCO3)CC1	-1.2%	-0.52	i
CCN1C(=S)SC(=O)C1=C1C=C(C)N(CCOC)C(C)=C1	-8.2%	0.49	.
N#CC1=C(N)S[C@@H](C(=O)c2ccc(F)cc2)[C@@H]1c1cccs1	4.0%	.	i
COc1ccccc1NC(=O)CSc1nnnn1Cc1ccccc1	4.1%	0.08	i
O=C(c1ccccc1)N1CCN(CC(O)COCC2CC=CCC2)CC1 (stereo not given)	6.1%	1.4	i
O=C(Nc1c(C(=O)N2CCOCC2)cnn1-c1ccccc1)c1ccccc1	5.6%	-0.09	i
CSC(=O)CC(=O)NC(=O)c1ccccc1	-4.0%	0.68	i
COc1ccccc1N1C(=O)C2CC=CC(C)C2C1=O (stereo not given)	-4.6%	-0.34	i
Cc1nc(-c2cccc(-c3noc(C)n3)c2)no1	-0.5%	0.02	i
Cc1ccc(O)c(C(=O)c2cc(C#N)c(=O)n(-c3c(C)n(C)n(-c4ccccc4)c3=O)c2)c1	0.8%	.	i
Cn1nc(C(=O)OCCN2C(=O)c3ccccc3C2=O)c2ccccc2c1=O	1.3%	0.52	i
COC(=O)c1cc2ccsc2n1CC(=O)NCC1CCCO1 (stereo not given)	1.2%	-1.6	i
CCCCCn1c(CN2CCN(C(=O)OCC)CC2)nc2c1c(=O)n(C)c(=O)n2C	-7.7%	0.75	i
O=C(COC(=O)C1(c2ccc(F)cc2)CCCC1)N1CCOCC1	2.6%	-0.91	i
CCCCn1c(CNC(=O)c2cccs2)nc2ccccc21	-0.5%	-0.32	i
Nc1ccc[n+](Cc2ccccn2)c1	-6.4%	1.1	i
COC(=O)[C@H](CCSC)NC(=O)NCc1cccs1	1.0%	1.5	i
CCc1nnc(NC(=O)C2CCCN2C(=O)Nc2ccccc2OC)s1 (stereo not given)	-0.7%	-0.33	i
CC(=O)c1cccc(NC(=O)c2cc3ccccn3n2)c1	-3.8%	-0.6	i
COCCn1c(=NC(=O)CSCC(=O)Nc2cc(C)on2)sc2cc(C(=O)OC)ccc21	1.0%	1.3	i
Cc1nc(N)[nH]c(=O)c1CCC(=O)OCC(C)C	-3.1%	-0.34	i

Looked up by structure from the list above, 6 records:
SMILES	Hsc70 ATP site	WNV protease inh	MT1-MMP promoter
Cn1nc(C(=O)OCCN2C(=O)c3ccccc3C2=O)c2ccccc2c1=O	1.3%	0.52	i
Cc1ccc(O)c(C(=O)c2cc(C#N)c(=O)n(-c3c(C)n(C)n(-c4ccccc4)c3=O)c2)c1	0.8%	.	i
O=C(COC(=O)C1(c2ccc(F)cc2)CCCC1)N1CCOCC1	2.6%	-0.91	i
CC(=O)c1cccc(NC(=O)c2cc3ccccn3n2)c1	-3.8%	-0.6	i
COC(=O)[C@H](CCSC)NC(=O)NCc1cccs1	1.0%	1.5	i
CCc1nnc(NC(=O)C2CCCN2C(=O)Nc2ccccc2OC)s1 (stereo not given)	-0.7%	-0.33	i
